CtBP-E1A blk: inhibitors of CtBP/E1A interaction | AlphaScreen GST-E1A/His-CtBP binding, 1536-well; stronger effect = lower value; control for the full effect not named in the record | activity change, % (test concentration not listed) | 340,000 compounds, 0.49% hits | AID 651724; in the data active means activity change below about -65%; inconclusive means about -30% to -65%; inactive means above about -30%; further: on the % scale 0 is the no-effect control and ±100 the full control effect
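Steps: dispense buffer (Tris pH 8.0, NaCl 300 mM, TCEP 1 mM, BSA, Tween 20); add 5X protein mix (GST-E1A, His-CtBP, 125 nM each); pin 23 nL compound; 2 h at 37 °C, dark; add 5X beads (50 ug/mL); 1 h; read.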
Six1-Eya2 inh: inhibitors of human Six1/Eya2 interaction. AID 651725. AlphaScreen GST-Six1/His-Eya2 binding, biochemical; stronger effect = lower value; control for the full effect not named in the record. Q15475+O00167. activity change, % (concentration not given with the values). 360,000 compounds, 0.56% hits; in the data active = activity change below about -65%; inconclusive = about -30% to -65%; inactive = above about -30%; further: on the % scale 0 is the no-effect control and ±100 the full control effect
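Compounds are tested against tagged Six1 and Eya2 proteins bridged by glutathione donor and nickel acceptor beads; after a one-hour incubation at 37 °C without light, AlphaScreen emission is recorded.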
D2 PAM: potentiates the human D2 dopamine receptor allosterically; P14416; DiscoveRx D2 beta-arrestin cells, luminescence, 90 min; 100% = 57 uM dopamine signal; potentiation, % (no concentration beside the values); 360,000 compounds, 0.23% hits; active = potentiation of 50% or more; inconclusive = 30% to 50%; inactive = 30% or less;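 further: compound concentration not given in the record; tested on top of an EC20 dose of dopamine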
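PathHunter beta-arrestin assay in DiscoveRx D2 cells. Compounds were added with an EC20 of dopamine (50 nM final) for 90 min at 37 deg C. Luminescence was read 1 h after detection reagent, with 57 uM dopamine as the EC100 control.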
TRPML1 ag: activates the human TRPML1 channel; TRPML1-expressing cells, Ca2+ dye fluorescence, FDSS; host cell line not named in the record; reference of the full effect not given here; activation, % (concentration not given with the values); 410,000 compounds, 0.12% hits; AID 624414; in the data active = activation above about 50%; inconclusive = about 30% to 50%; inactive = below about 30%; further: 0% is about no effect; the text of the record puts the active cut at 80%
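Tetracycline-induced TRPML1-DL cells are seeded and incubated overnight before loading with a no-wash Ca2+ dye and quencher. Agonist activity is taken from the 110 s fluorescence read following compound pin-transfer on an FDSS, before EC80 54-4 challenge.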
TRPV1 PAM: potentiators of human vanilloid receptor 1 (TRPV1); 320,000 compounds, 0.02% hits; TRPV1-expressing cells, Fluo-8 calcium influx, capsaicin EC20 potentiation; host cell line not named in the record; control for the full effect not named in the record; potentiation, % at 8.33 µM; Q8NER1; AID 540277; active means potentiation above 80%; inconclusive means 30% to 80%; inactive means below 30%; further: 0% is about no effect
Target sequence (Q8NER1 whole entry, looked up): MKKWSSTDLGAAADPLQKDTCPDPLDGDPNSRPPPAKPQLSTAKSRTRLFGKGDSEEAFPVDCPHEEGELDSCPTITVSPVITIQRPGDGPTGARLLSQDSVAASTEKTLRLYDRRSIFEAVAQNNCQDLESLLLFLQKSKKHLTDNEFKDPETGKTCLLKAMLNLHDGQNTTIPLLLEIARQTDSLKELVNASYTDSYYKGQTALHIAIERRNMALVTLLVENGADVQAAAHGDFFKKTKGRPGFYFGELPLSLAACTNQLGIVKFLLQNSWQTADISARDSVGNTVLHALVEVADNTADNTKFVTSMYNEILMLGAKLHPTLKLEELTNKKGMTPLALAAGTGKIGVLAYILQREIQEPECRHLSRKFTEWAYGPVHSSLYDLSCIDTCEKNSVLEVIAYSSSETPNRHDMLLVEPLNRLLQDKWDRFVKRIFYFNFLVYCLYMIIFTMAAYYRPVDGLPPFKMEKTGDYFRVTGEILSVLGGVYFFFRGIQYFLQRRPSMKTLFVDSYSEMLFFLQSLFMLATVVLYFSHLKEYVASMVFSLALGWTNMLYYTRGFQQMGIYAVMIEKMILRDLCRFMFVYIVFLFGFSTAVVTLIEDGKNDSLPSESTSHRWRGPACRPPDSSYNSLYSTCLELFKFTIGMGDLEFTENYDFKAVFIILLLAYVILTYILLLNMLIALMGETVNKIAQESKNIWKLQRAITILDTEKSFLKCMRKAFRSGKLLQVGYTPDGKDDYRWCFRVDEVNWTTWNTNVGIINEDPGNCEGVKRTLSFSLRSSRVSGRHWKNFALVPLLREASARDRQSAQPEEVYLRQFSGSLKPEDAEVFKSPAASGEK
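Fluo-8 calcium influx in TRPV1-expressing cells, kinetic read (ex 480/em 520 nm). Compound added and read 3 min for agonist activity, followed by capsaicin at EC20 final and 2 min further read for enhancement.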
TRPML1 inh: inhibitors of human TRPML1 channel; activity change, negative = inhibition, % (concentration not given with the values); AID 624415; 390,000 compounds, 0.02% hits; TRPML1-inducible cells, Ca2+ dye fluorescence, FDSS; stronger effect = lower value; inhibition of EC80 agonist-evoked calcium signal; in the data active means activity change below about -50%; inconclusive means about -30% to -50%; inactive means above about -30%;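 further: stimulus is agonist 54-4 at its EC80 concentration; on the % scale 0 is the no-effect control and ±100 the full control effect; the text of the record puts the active cut at -80%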
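Tet-induced TRPML1-DL cells loaded with Ca8 no-wash calcium dye were read kinetically on FDSS. Compound addition was followed by EC80 agonist 54-4 (4 uM final); inhibition was read over 110 s.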
The depositor's hits bear a star; ? = inconclusive; nt = not tested or not shown; & = joins results of further samples. Hits appear at their usual frequency; any-hit rate near 0.95%.

SMILES | CtBP-E1A blk | Six1-Eya2 inh | D2 PAM | TRPML1 ag | TRPV1 PAM | TRPML1 inh
CN(C)C(=O)C(NC(=O)c1ccccc1)=C(Cl)Cl | nt | 5 | -7 | 0.7 | 1 | -18
CS(=O)(=O)N(CC(=O)N1CCc2ccccc2C1)c1ccc2c(c1)OCO2 | -5 | 11 | 1 | -1.0 | 4 | 36
CCN(C(=O)CSc1nc2ccc([N+](=O)[O-])cc2s1)C1CCS(=O)(=O)C1 (centres undefined) | -4 | -9 | -7 | -0.4 | 9 | 2
O=C(C1CCCN(S(=O)(=O)c2ccc(Cl)cc2)C1)N1CCCC1 (centres undefined) | 3 | 14 | -6 | 0.6 | -45 | -1
CCC(=O)N1CCc2cc(S(=O)(=O)N3CCN(c4ccccn4)CC3)ccc21 | -2 | 4 | 12 | 5.4 | -3 | 2
Cn1nc(C(=O)N2CCN(S(=O)(=O)c3ccccc3)CC2)c2ccccc2c1=O | 4 | -3 | -7 | 0.0 | -8 | 10
Cc1ccc2occ(/C=N/NC(=O)c3ccccc3C)c(=O)c2c1 | -8 | -12 | 10 | 0.5 | 5 | 36
COc1ccc(Nc2ncc(C(=O)N3CCN(c4ccccc4OC)CC3)c3ccccc23)cc1 | -6 | -12 | 11 | 0.1&0.3 | -3 | -4&0
c1ccc(Cn2cc(-c3cccnc3)cn2)cc1 | 5 | 2 | -11 | -0.4 | -8 | 15
CC(C)(C)c1csc(NC(=O)CS(=O)(=O)c2ccccc2)n1 | -1 | 0 | 2 | -0.1 | 27 | 2
CCCCNC(=O)CC1N=C2c3ccccc3N=C(SCC(=O)Nc3cccc(C)c3)N2C1=O (centres undefined) | -2 | 3 | -13 | -0.7 | -2 | -6
COc1ccc(C)cc1N(CC(=O)N1CCc2ccccc2C1)S(C)(=O)=O | nt | 3 | -40 | 1.3 | 2 | -11
COc1ccc(C=NCC2OCCc3ccccc32)cc1OC (centres undefined) | -1 | 6 | 0 | 0.0 | -6 | 37
CSc1ccc(CCNC(=O)c2cccc3c2C(=O)N(C2CCCCC2)C3)cc1 | -13 | -15 | -4 | 2.0 | -8 | 25
NC(=O)C1(N2CCCCC2)CCN(C(=O)c2ccc(C#Cc3ccccc3)o2)CC1 | -1 | -6 | 2 | 0.7 | -12 | 6
CCOC(=O)C1CCN(C(=O)c2ccccc2)c2scc(-c3ccccc3)c2C1=O (centres undefined) | -4 | 8 | -15 | 1.4 | nt | 4
Cc1cc(=O)[nH]c(N/N=C/c2c(C)nn(-c3ccccc3)c2Cl)n1 | ? | ? | 2 | -0.4 | -6 | 29
COC(=O)C(NC(=O)c1ccco1)(Nc1ccc(Br)cn1)C(F)(F)F (centres undefined) | 4 | -2 | ? | 0.7 | -2 | -6
CCOC(=O)c1c(-c2ccccc2Cl)csc1NC(=O)c1cc(S(=O)(=O)N2CCOCC2)ccc1C | -13 | -7 | -15 | -0.7 | 22 | 50
Cc1ccc(S(=O)(=O)N[C@H](C(=O)Oc2ccc3c(C(F)(F)F)cc(=O)oc3c2)c2ccccc2)cc1 | -11 | 2 | -1 | 9.7 | -17 | 1

For reference, some entries already given.
SMILES | CtBP-E1A blk | Six1-Eya2 inh | D2 PAM | TRPML1 ag | TRPV1 PAM | TRPML1 inh
CCCCNC(=O)CC1N=C2c3ccccc3N=C(SCC(=O)Nc3cccc(C)c3)N2C1=O (centres undefined) | -2 | 3 | -13 | -0.7 | -2 | -6
COc1ccc(C)cc1N(CC(=O)N1CCc2ccccc2C1)S(C)(=O)=O | nt | 3 | -40 | 1.3 | 2 | -11
COc1ccc(C=NCC2OCCc3ccccc32)cc1OC (centres undefined) | -1 | 6 | 0 | 0.0 | -6 | 37
CSc1ccc(CCNC(=O)c2cccc3c2C(=O)N(C2CCCCC2)C3)cc1 | -13 | -15 | -4 | 2.0 | -8 | 25
NC(=O)C1(N2CCCCC2)CCN(C(=O)c2ccc(C#Cc3ccccc3)o2)CC1 | -1 | -6 | 2 | 0.7 | -12 | 6

New compounds follow.
SMILES | CtBP-E1A blk | Six1-Eya2 inh | D2 PAM | TRPML1 ag | TRPV1 PAM | TRPML1 inh
COc1ccc([C@H]2CC(=O)C=C(c3ccc(SC)cc3)C2)cc1 | nt | -3 | -3 | 2.1 | 2 | 12
CCCCCC(O)(c1ccc(OCC)cc1)C(CN1CCOCC1)c1ccccc1 (centres undefined) | -8 | -1 | -6 | 2.2 | -12 | 28
COC(=O)C1=C(C)NC(C)=C(C(=O)OC)C1C(=O)OC1CCCCC1=O (centres undefined) | 1&6 | -1&0 | -2&1 | 0.0&-0.3 | -15 | 9&-8
COc1cc(C)ccc1N(CCCN1C(=O)c2cccc3cccc(c23)C1=O)C(=O)c1cccs1 | -22 | -18 | 2 | 1.5 | -3 | 19
COC(=O)C(C)Sc1ccc2nnc(-c3ccc(F)cc3)n2n1 (centres undefined) | 0 | 1 | -10 | 0.1 | nt | 16
CCc1ccc(N2C(=O)/C(=C/c3cccs3)N(CC(=O)OC)C2=S)cc1 | -1 | -3 | 2 | 0.7 | -3 | 19
COc1ccc(NC(=O)C2(c3ccccc3)CCCC2)cc1 | 0 | 16 | -11 | -0.1 | -20 | 17
Cc1ccc(CNC(=O)CNC(=O)c2c(C)nn(C)c2Cl)cc1 | 9 | 9 | -3 | -0.1 | ? | -2
CNc1cccc(-c2ccccc2CO)n1 | -4 | -3 | -1 | -0.8 | nt | nt
CC(C)C(=O)Nc1nnc(COc2ccc(Cl)cc2)s1 | nt | 1 | -15 | -0.7 | -15 | -8
CCC(=O)Nc1cccc(C2=NOC3(C2)C[C@H](C(N)=O)N(C(=O)Cc2ccc([N+](=O)[O-])cc2)C3)c1 (some centres undefined) | 2 | 4 | -5 | 1.4 | ? | 11
CCCCc1ccc(NC(=O)C2CCN(S(C)(=O)=O)CC2)cc1 | 2 | 1 | -13 | -0.7 | -20 | -1
O=C(O)CCn1cc(-c2ccc(Cl)cc2)nc1-c1ccncc1 | -5 | -1 | -12 | -0.4 | -12 | 3
Cc1c(Cl)cccc1NC(=O)CCN1CCCCC1 | 7 | 2 | -37 | 3.2 | -5 | 3
CC(=O)NN1C(=O)c2ccccc2NC1c1ccco1 (centres undefined) | -1 | 9 | -9 | 0.4 | -1 | 21
Cc1ccc2c(c1)c1ncn(Cc3ccc(F)cc3)c(=O)c1n2C | nt | -7 | -15 | -1.6 | -7 | 3
CC1CCC(NC(=O)CCCn2sc3ccccc3c2=O)CC1 (centres undefined) | -4 | -4 | -15 | 2.9 | -18 | 5
Oc1ccccc1C1CCCCC1c1ccccc1 (centres undefined) | 9 | -2 | 0 | -0.3 | -23 | 0
Fc1ccc(-c2cc(C(F)(F)F)nc(-n3cc(Cl)cn3)n2)cc1 | nt | 27 | -13 | -0.2 | -12 | -2
CCC(CC)C(=O)c1c[nH]c(C(=O)NC2CCCCCC2)c1 | 5 | 3 | -24 | 3.5 | -1 | 53
CN(C(=O)c1ccc2c(c1)OCO2)C1CCS(=O)(=O)C1 (centres undefined) | 9 | -10 | -13 | 1.5 | 5 | 4
O=c1[nH]n(Cc2ccccc2)c(=O)c2ccccc12 | 2 | -1 | -6 | 0.6 | 6 | -11
O=C(CN1CCCc2ccccc21)NC(=O)NCc1ccccc1 | -4 | -15 | -9 | -0.2 | -9 | -10
CC12CCC3c4ccccc4CCC3(CO1)C2 (centres undefined) | 5 | 7 | -6 | -0.4 | nt | -9
CC(=O)N1CCc2c(sc3c2c(=O)n(-c2ccccc2)c(=O)n3Cc2ccccc2Cl)C1 | 5 | 5 | -4 | 1.0 | 9 | 1
Cc1nn(CC(=O)N2CCN(c3ccccc3)CC2)c(C)c1[N+](=O)[O-] | -8 | -15 | -8 | 1.0 | ? | -14
COc1ccccc1-n1c(CNC(=O)c2ccco2)n[nH]c1=S | 10 | 4 | -14 | 1.5 | -3 | 21
COc1ccc(C)cc1NC(=O)CSc1ccc(-c2sc(C)nc2C)nn1 | -15 | -18 | -7 | 2.8 | -5 | -1
CC(=O)CSc1nnc(Cc2ccc3c(c2)OCO3)o1 | 4 | 0 | -3 | -0.2 | -3 | 9
COc1ccc(N(CC(=O)NCc2cccs2)S(=O)(=O)c2c(C)nn(C)c2C)cc1 | 4 | 1 | -3 | -0.3 | nt | 6
Cc1cc(NCCCn2ccnc2)n2nc(C)c(-c3ccc(Cl)cc3)c2n1 | -24 | -27 | 18 | -0.1 | -3 | -8
COc1ccc(OC)c2[nH]c(=O)c(CCNC(=O)c3cc4ccccc4o3)cc12 | -3 | -10 | 9 | 0.5 | 15 | -5
CCc1nc2ccccc2nc1N1CCN(S(=O)(=O)c2c(C)cc(Cl)cc2C)CC1 | nt | 3 | -3 | 0.3 | 16 | -22
Cc1cc(C(F)(F)F)nn1CC(=O)N1CCOCC1 | 6 | 3 | -4 | 0.7 | 14 | 6
O=S(=O)(c1ccccc1F)N1CCN(CCOc2ccccc2)CC1 | nt | -8 | -28 | -0.8 | -7 | -2
Cc1nn(-c2ccccc2)c(Cl)c1/C=N/NC(=O)c1ccnn1C | nt | -2 | -5 | 0.7 | -7 | 4
CC1=NC(C)(C)Cc2c(C)cccc21 | 13 | 10 | -3 | 0.0 | 11 | 8
O=C(O)c1ccc(CNC(=O)c2ccccc2NC(=O)c2ccc([N+](=O)[O-])cc2)cc1 | nt | 6 | 14 | -0.8 | 11 | 4
N#Cc1ccc(C(CC(=O)O)N2Cc3ccccc3C2=O)cc1 (centres undefined) | nt | 15 | -3 | 0.7 | 3 | -3
Cc1ccc(CSc2nnc(CNc3ccc(F)cc3)o2)cc1 | -2 | -1 | -1 | 1.4 | -6 | 2
NC(=O)c1ccc(NC(=O)COC(=O)C(Cc2ccccc2)NC(=O)c2ccccc2)cc1 (centres undefined) | 0 | 0 | 7 | 4.3 | 5 | -10
COc1ccc([C@H]2CC(=O)C=C(c3ccc(F)cc3OCc3ccccc3)C2)cc1 | -6 | -3 | -15 | 1.0 | 1 | -9
Cc1ccccc1C(=O)Nc1c(C(=O)N(CCN(C)C)Cc2ccco2)oc2ccccc12 | -12 | -14 | -49 | 0.5 | -21 | 7
O=C(CCc1nnc2ccc(N3CCC4(CC3)OCCO4)nn12)NCc1ccc(F)cc1 | nt | 4 | -1 | 0.1 | 13 | -9
O=C(CC1SC(N2CCCCC2)=NC1=O)Nc1ccc(C(=O)Nc2ccccc2)cc1 (centres undefined) | -3 | -6 | -15 | 0.3 | 8 | 0
CCCCCn1c(CNC(=O)COC)nc2ccccc21 | -7 | -12 | 6 | 2.5 | -5 | -25
Cc1ccccc1NC(=O)NNC(=O)c1ccc2ccccc2c1 | 5 | 0 | 4 | -0.5 | ? | -1
Cc1ccccc1C(=O)N/N=C/c1ccsc1C | 13 | 7 | 4 | 0.7 | -5 | 9
O=C(NC(Cc1ccccc1)C(=O)N1CCN(c2ccccc2O)CC1)c1ccccc1 (centres undefined) | 0 | -14 | 1 | -0.7 | -19 | 15
Clc1nnc(NN=C2CCCC2)c2ccccc12 | -8 | -5 | 0 | -0.5 | -11 | 42
CN1C(=O)c2ccccc2Sc2ccc(NC(=O)NC3CC3)cc21 | 0 | -2 | -19 | -0.2 | -16 | -7
O=C(NCC1CCCCC1)c1cccnc1Cl | 3 | 11 | -8 | -0.1 | -5 | -5

Source: PubChem BioAssay (National Center for Advancing Translational Sciences (NCATS))
